Source: PubChem
Mtb MbtI inh = MbtI salicylate synthase inhibitors, primary screen, biochemical, fluorescence intensity; P9WFX0; purified MbtI enzyme, fluorescence intensity read-out; inhibition, %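 (about 17 µg/mL by stock and volumes)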; 0.89% of 100,000 active; AID 493033, 2011;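 active = above 50% in both replicates, above 80% if mildly self-fluorescent; inactive = the rest, strongly fluorescent compounds included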;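 note: 0% = mean of negative and 100% = mean of positive controls; one replicate is shown; some compounds called inactive have numbers as strong as hits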
Target sequence (P9WFX0 whole entry, looked up): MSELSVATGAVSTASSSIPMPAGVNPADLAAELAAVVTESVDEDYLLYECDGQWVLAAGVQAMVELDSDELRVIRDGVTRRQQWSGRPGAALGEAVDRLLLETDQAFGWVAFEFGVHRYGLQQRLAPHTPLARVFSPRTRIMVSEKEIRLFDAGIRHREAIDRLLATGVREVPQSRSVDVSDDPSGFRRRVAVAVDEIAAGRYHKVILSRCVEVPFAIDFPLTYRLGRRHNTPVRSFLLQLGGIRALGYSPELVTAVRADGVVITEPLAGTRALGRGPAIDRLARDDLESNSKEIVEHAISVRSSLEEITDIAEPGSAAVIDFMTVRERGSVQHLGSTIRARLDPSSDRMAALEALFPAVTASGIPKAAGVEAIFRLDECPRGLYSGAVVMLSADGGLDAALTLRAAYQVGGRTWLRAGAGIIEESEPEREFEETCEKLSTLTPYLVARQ
MenB inh = M. tuberculosis MenB inhibitors, primary screen, biochemical, absorbance | inhibition, %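 (about 12 µg/mL by stock and volumes)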 | MenB enzyme assay, absorbance read-out; some hits fall short of the stated cut | 0.43% of 100,000 active | AID 540299, 2011 | 1,4-dihydroxy-2-naphthoyl-CoA synthase (Mycobacterium tuberculosis (strain ATCC 25618 / …;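 active = mean of two replicates above 30%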;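 note: 0% = no compound and 100% = wells with inactive enzyme; the first replicate is given; strong numbers were not always called active; inactives centre near -10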
Target sequence (P9WNP5 whole entry, looked up): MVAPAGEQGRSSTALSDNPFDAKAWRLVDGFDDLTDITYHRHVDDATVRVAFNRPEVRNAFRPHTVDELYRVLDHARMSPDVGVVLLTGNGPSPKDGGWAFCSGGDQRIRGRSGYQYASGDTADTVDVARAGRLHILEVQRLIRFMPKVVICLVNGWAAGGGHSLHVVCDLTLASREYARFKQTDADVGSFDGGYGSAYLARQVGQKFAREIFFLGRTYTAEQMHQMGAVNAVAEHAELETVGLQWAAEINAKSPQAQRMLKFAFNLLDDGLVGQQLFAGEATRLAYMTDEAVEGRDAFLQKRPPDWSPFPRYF
Polio RdRp inh = poliovirus RdRp elongation inhibitors, primary screen, biochemical, fluorescence polarization, total intensity. % elongation, % (compound at 16.7 µg/mL). poliovirus polymerase elongation; active compounds read low. Genome polyprotein (Poliovirus type 1 (strain Mahoney)), P03300. 0.66% of 150,000 active. AID 588519, 2011; in the data active = % elongation below about 90%; note: some results filed as inactive read as strong as hits
Polio RdRp inh intensity = second read-out of Polio RdRp inh, no call of its own (marks repeat the call); % elongation; measured here: total intensity read-out; formula for this scale not given here;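 total fluorescence in place of polarization; lower means less elongation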
Numbers without * were called inactive; · = not tested or not shown.

SMILES	Mtb MbtI inh	MenB inh	Polio RdRp inh	Polio RdRp inh intensity
O=C(CC(NCc1ccccc1)C(=O)O)c1ccc(Br)cc1 (stereo not drawn)	·	18	100	103
S=C(Cc1ccc(CC(=S)N2CCOCC2)cc1)N1CCOCC1	4	8	102	101
O=C(CN1CCC(C(=O)c2ccc(F)cc2)CC1)Nc1ccccc1	-7	-10	100	100
CCOC(=O)c1c(C)n(C)c2ccc(OCC(O)CNCc3ccco3)cc12 (stereo not drawn)	-2	-19	104	98
CCN(CC(=O)Nc1ccc(Br)cc1)C(=O)c1nc2nc(C)cc(C)n2n1	1	10	101	105
C=CCn1c(SC(C)C#N)nc2cc(Cl)ccc2c1=O (stereo not drawn)	3	-6	108	110
Cc1cc(C)c2c(c1)-c1cc(C)nn1C(c1cccs1)N2 (stereo not drawn)	115	-1	99	102
CC(=O)c1cc2ccccc2oc1=O	11	-2	98	99
O=C1c2ccccc2CN1c1ccccc1	87	2	102	104
O=C(O)c1cc(-c2cccs2)nn1-c1cccc(Cl)c1	3	-24	98	102
Cc1cc(C)n2cc(CN3CCc4ccccc4C3)nc2n1	-5	-7	103	113
O=C(CCn1cccc1)N1CCc2ccccc21	8	-14	103	98
COc1ccc2c(c1)sc1ncc(C(=O)NCC(C)c3ccccc3)c(=O)n12 (stereo not drawn)	8	1	103	97
O=C(O)CSc1ccccc1Cl	11	-29	105	91
Cc1ccc(C)n1-c1ccc(-c2nc3ccccc3[nH]2)cc1	102	-16	96	104
Cc1ccc(C(C)C)c(OCCN)c1	-12	·	102	102
Cc1cc(C(=O)O)ccc1-n1c(C)cc(C=Nc2ccc(N3CCOCC3)cc2)c1C	·	-4	97	104
N#CC(C(=O)N1CCCC1)C(=S)Nc1ccccc1Cl (stereo not drawn)	37	-6	103	102
O=C(NCCc1c[nH]c2ccccc12)C1CCCCC1	·	-2	100	105
O=C1c2ccccc2S(=O)(=O)c2cc(-c3nn[nH]n3)ccc21	-10	-7	101	100
O=C(NC=Nc1cccnc1)c1cccc(COCC(F)(F)F)c1	3	-6	100	102
Cc1cc2nc(CSCc3ccco3)cc(=O)n2o1	9	-2	100	101
CC1CC(C)(C)NC(=S)N1CCC(=O)NCCN1CCCc2ccccc21 (stereo not drawn)	8	-1	101	102
Cc1cc(NC(=O)c2noc3c2CCc2ccccc2-3)n(-c2ccccc2)n1	-4	-31	102	102
O=S(=O)(c1ccc(Sc2nnnn2C2CC2)nc1)N1CCCCC1	2	-8	106	103
SMILES	Mtb MbtI inh	MenB inh	Polio RdRp inh	Polio RdRp inh intensity
COCC(=O)Nc1cccc(-c2ccc(S(C)(=O)=O)nn2)c1	1	9	99	103
O=C1CC(Sc2nnc(-c3cccc(S(=O)(=O)N4CCOCC4)c3)o2)C(=O)N1c1ccc(F)cc1 (stereo not drawn)	-10	-20	105	112
C#CC(CC)(CC)NC(=O)Nc1ccccc1	6	7	103	96
c1ccc(Oc2cccc(CSc3nc4ccccc4o3)c2)cc1	·	-19	101	94
O=C(Cc1cn2ccsc2n1)N/N=C1\CC(c2ccccc2)Oc2ccccc21 (stereo not drawn)	8	-63	107	97
O=C(Nc1ccc2c(c1)C(=O)N(C1CCCCC1)C2=O)c1ccc(Br)o1	-58	-13	99	102
O=C1c2ccccc2N(S(=O)(=O)c2cccs2)C(=O)c2ccccc2N1S(=O)(=O)c1cccs1	6	-8	102	105
Cc1nc(C)c(C(=O)N/N=C/c2ccc(N(C)C)cc2)s1	-24	-57	97	90
Nc1sc2c(c1C(=O)Nc1cccc(Cl)c1)CCCCC2	·	-14	104	117
O=C(O)C1=Cc2ccccc2OC1	23	1	96	92
COc1ccc(OCCCC(=O)Nc2ccc(S(=O)(=O)Nc3nccs3)cc2)cc1	-3	-22	100	101
CCOC(=O)c1cc(-c2ccc(OC)cc2)nn1CCC#N	-9	1	106	108
OC(COCC1CC=CCC1)CN(Cc1ccccc1)Cc1ccccc1 (stereo not drawn)	·	-24	86*	92*
CCOC(=O)/C=C1\SCC(=O)N1Cc1ccc(C)cc1	-7	-16	107	110
Cc1cc(F)ccc1S(=O)(=O)N1CCCCC1CCNC(=O)NC1CCCCC1 (stereo not drawn)	-14	-27	102	103
O=S(=O)(Nc1ccccn1)c1ccc(Cl)cc1	82	·	101	106
O=c1c2ccccc2nc2sc(Nc3c(F)cccc3F)nn12	-10	3	101	101
O=C(Nc1nnc(C2CC2)s1)c1ccc2c(c1)S(=O)(=O)c1ccccc1C2=O	4	2	102	109
Cc1nn(C)c(C)c1S(=O)(=O)N1CCN(c2ccccc2)CC1	4	-27	102	106
Cn1c(=O)c2c(nc(CN3CCOCC3)n2CC(=O)C(C)(C)C)n(C)c1=O	-4	1	102	102
Cc1ccc(S(=O)(=O)N2CC=C(C(=O)NC3CCCC3)CC2)cc1	12	11	105	100
COc1ccccc1CC(=O)NC(C)C1CCCO1 (stereo not drawn)	-12	-19	102	105
Cc1cc(=O)n2[nH]c(C34CC5CC(CC(C5)C3)C4)nc2n1	0	-13	100	103
O=C(NC1CCC(O)CC1)c1ccc(S(=O)(=O)N2CCCc3ccccc32)cc1 (stereo not drawn)	-8	-11	·	·
Cc1c(CC(=O)N2CCCC2)c(=O)oc2cc3occ(C(C)(C)C)c3cc12	129	11	102	102

2 compounds from above, showing only Mtb MbtI inh, MenB inh and Polio RdRp inh intensity.
molecule | Mtb MbtI inh | MenB inh | Polio RdRp inh intensity
C#CC(CC)(CC)NC(=O)Nc1ccccc1 | 6 | 7 | 96
Cc1cc(=O)n2[nH]c(C34CC5CC(CC(C5)C3)C4)nc2n1 | 0 | -13 | 103

Next compounds.
SMILES	Mtb MbtI inh	MenB inh	Polio RdRp inh	Polio RdRp inh intensity
Cc1ccc2cc(CN(Cc3cccs3)Cc3nnnn3C(C)(C)C)c3nnnn3c2c1	2	8	101	101
Cc1nc(SCC(=O)Nc2nccs2)[nH]c(=O)c1C	10	0	104	100
COc1ccccc1C(=O)Nc1sccc1C(N)=O	-66	-13	100	108
CCOC(=O)c1c(N)sc2c1CCC2	-4	·	99	102
O=C(CCSc1nc(-c2ccco2)cc(C(F)(F)F)n1)N1CCCc2ccccc21	-10	-10	104	107
Cc1cc(NC(=O)CC(C)(C)CC(=O)O)n(C)n1	-5	6	101	102
CCn1ccc(C(=O)Nc2ccc(C)c(C)c2)n1	5	1	102	102
CCOc1ccc(S(=O)(=O)NCCC(=O)NC2CCC(C)CC2)cc1 (stereo not drawn)	4	-18	104	106
Cc1cc(C(=O)N/N=C/C(C)(C)C)nn1-c1ccc(C(C)C)cc1	15	-10	104	103
COc1ccc(/C=C/C(=O)OCC(=O)Nc2cccc(C(F)(F)F)c2)cc1	0	·	101	106
CCc1cc2c(C)cc(=O)oc2cc1OCC(=O)NC1CCCCC1	18	·	98	101
O=C(Cc1ccc(Cl)cc1)OCC(=O)c1cc2ccccc2o1	-138	·	100	105
CCOC(=O)/C=C1\NC(C)(C)Cc2cc(OC)c(O)cc21	·	-25	104	113
COc1cc(C)c2c(c1)CCC1C2CCC2(C)C(O)CCC12 (stereo not drawn)	-6	-15	105	107
CN(Cc1cccs1)Cc1nc2scc(-c3ccccc3)c2c(=O)n1CC#N	38	-21	107	110
CC(C)N1CCN(Cc2ccc3ccccc3c2)CC1	-21	0	100	103
Nc1ccc(C(=O)c2ccccc2C(=O)O)cc1Cl	-3	-1	101	102
COc1cccc(C(=O)Nc2ccccc2C#N)c1OC	-18	-24	105	103
COc1cccc(C(=O)ON2C(=O)c3ccccc3C2=O)c1	-5	9	100	100
Cn1c(=NC(=O)CN2C(=O)C3CC=CCC3C2=O)sc2ccccc21 (stereo not drawn)	-5	-1	101	94
CC1CCCC(C)N1C(=O)COC(=O)c1c2c(nc3ccccc13)CCC2 (stereo not drawn)	0	·	102	108
COc1cccc(Cn2c(=O)n(CCc3ccccc3)c(=O)c3cccnc32)c1	-14	-4	101	102
Cc1noc(C)c1CSc1ccccc1C(=O)OCc1nnc(-c2ccccc2)o1	3	-28	100	100
Nc1nnnn1/N=C\c1ccc(O)cc1	-2	-6	98	104
O=C(CN1CCNCC1)Nc1ccc(Cl)cc1Cl	-12	-13	101	102

Some of the entries so far, comma-delimited.
molecule,Mtb MbtI inh,MenB inh,Polio RdRp inh,Polio RdRp inh intensity
Cn1c(=NC(=O)CN2C(=O)C3CC=CCC3C2=O)sc2ccccc21 (stereo not drawn),-5,-1,101,94
CC1CCCC(C)N1C(=O)COC(=O)c1c2c(nc3ccccc13)CCC2 (stereo not drawn),0,·,102,108
COc1cccc(Cn2c(=O)n(CCc3ccccc3)c(=O)c3cccnc32)c1,-14,-4,101,102
Cc1noc(C)c1CSc1ccccc1C(=O)OCc1nnc(-c2ccccc2)o1,3,-28,100,100
Nc1nnnn1/N=C\c1ccc(O)cc1,-2,-6,98,104
O=C(CN1CCNCC1)Nc1ccc(Cl)cc1Cl,-12,-13,101,102

Going on with the list:
SMILES	Mtb MbtI inh	MenB inh	Polio RdRp inh	Polio RdRp inh intensity
Cc1ccc2c(c1)sc(=NC(=O)C1=COCCO1)n2C	-16	-32	100	98
CC(C)(C)c1cc(C(C)(C)C)n(-c2ccc(Br)cc2)n1	7	4	101	98
CNCc1ccccc1N1CCOCC1	-10	-11	98	96
Cc1nn(CC(C)C)c(Cl)c1C(=O)NCC1COc2ccccc2O1 (stereo not drawn)	-5	-14	105	102
CC1(C)CC(=O)C2=C(C1)Oc1ccc(Br)cc1C2	10	12	99	104
CCOC(=O)c1sc(N/C=C(\C#N)c2nc3cc(Cl)ccc3o2)c(C#N)c1C	8	9	79	192
N#CC1=C(N)Oc2c(oc(CO)cc2=O)C12C(=O)Nc1ccccc12 (stereo not drawn)	-2	17	101	104
COC(=O)c1c(OCC(=O)N(Cc2ccccc2)C(C)(C)C)cc(=O)n2c1CCCCC2	8	-5	101	97
Cc1ccc(C2=NS(=O)(=O)N(C)C(C(=O)N(C)c3ccccc3)=C2)cc1	8	-5	102	99
O=C1C2C(C(=O)N1Cc1ccc(F)cc1)C1C=CC2C12CC2 (stereo not drawn)	-2	9	102	103
COc1cc(C2NN=C3C4CCN(CC4)C32)cc(OC)c1OC (stereo not drawn)	0	-6	108	105
O=C(CCNS(=O)(=O)c1ccc2c(c1)OCCO2)NC1CCCc2ccccc21 (stereo not drawn)	-4	-11	107	113
Cc1cc(S(=O)(=O)N2CCOCC2)ccc1N=Cc1c(C)[nH]n(-c2ccc(Cl)cc2)c1=O	1	30	100	100
C=CC[N+]1(C)Cc2ccccc2C1	-9	2	102	103
COC(=O)c1cc(=O)n(C2CCCCC2)c(=NC2CCCCC2)s1	7	7	103	99
Cc1ccc(C)[n+](CNC(=O)c2ccc(Cl)cc2Cl)c1	·	2	100	94
C=CCN1C(=O)CS/C1=N/c1nccs1	8	-64	103	98
O=C(Nc1ccc(F)cc1)C1CCCO1 (stereo not drawn)	·	-3	104	112
CSc1nsc(SCC(=O)N(c2ccccc2)c2ccccc2)n1	-15	-24	101	103
CC1(C)CC(=O)c2c(nc3cc(Cl)ccc3c2N)C1	9	-5	99	100
CCCn1c(SCc2nc(N)nc(N)n2)nc2sc3c(c2c1=O)CCC3	8	5	104	99
CCn1c(CSCC(=O)NC(C)C)nc2cc(S(=O)(=O)N3CCCCC3)ccc21	25	-3	104	99
COCC(C)n1c(C)cc(C(=O)COC(=O)c2cccn2C)c1C (stereo not drawn)	2	-26	99	106
CCCCn1c2c(c(=O)n(C)c1=O)C(c1ccc(OC)cc1)C(NC(=O)c1ccccc1)C(=O)N2 (stereo not drawn)	-14	10	99	105
CCN1C(=O)CC(NC2CCN(c3ccc(C(F)(F)F)cn3)CC2)C1=O (stereo not drawn)	-45	-13	105	104
SMILES	Mtb MbtI inh	MenB inh	Polio RdRp inh	Polio RdRp inh intensity
Cc1ccc(-c2nc(=O)[nH]c3ccccc23)cc1	6	-6	103	101
CCOc1ccc(-n2c(N)c(S(=O)(=O)c3ccccc3)c3nc(C#N)c(C#N)nc32)cc1	21	-30	101	103
CC1(C)CC(=O)C(CC2=C(O)CC(C)(C)CC2=O)C(=O)C1	·	-19	116	115
CCC(=O)Nc1c(OC(=O)CC)ccc2c(C)cc(=O)oc12	128	-15	101	102
CC1=C(CCN2CCN(Cc3ccccc3)CC2)C(C)(C)CCC1	6	-17	98	102
C/C(=N\NC(=O)Cc1c(C)[nH][nH]c1=O)c1ccc2ccccc2c1	-2	-22	101	101
CCCNC(=O)Nc1ccc(OC(F)(F)F)cc1	1	9	100	95
COc1cccc(CNC(=O)c2cnn3c4c(cnc23)CCCCC4)c1	-7	-19	106	102
COC(=O)c1ccc(C(NC(=O)c2cccnc2)NC(=O)c2cccnc2)cc1	-6	-8	104	108
COc1cccc(-c2cc(C(=O)NCC3CCCO3)on2)c1 (stereo not drawn)	2	10	103	100
CCOC(=O)N1CCC(n2c(SCC(=O)N3CCC(C)CC3)nc3ccccc3c2=O)CC1	-10	3	100	103
N#Cc1sc2nc3c(cc2c1N)CCC3	25	-98	101	101
COCCCNc1nc(Nc2ccc(OC)c(Cl)c2)c2cnn(C)c2n1	-97	-24	105	100
Cc1noc(C)c1C(=O)N1CC(C(N)=O)Oc2ccccc21 (stereo not drawn)	-4	-6	108	102
CC1=C(C#N)c2nc(N)c(C#N)c(C)c2/C1=C\c1cccnc1	9	-31	94	109
Cc1cc(C)nc(/N=C(/N=C(\N)NC(=O)c2ccccc2)Nc2ccccc2)n1	26	-4	101	101

Not a hit list, and some 1.8% of all compounds hit somewhere here.
